Screens deposited in PubChem BioAssay by several laboratories.
MLL AF4-AF9 inh = inhibitors of human MLL-AF4/AF9 interaction. AlphaScreen, biotin-AF4 peptide binding to FLAG-AF9. P42568. 350,000 tested, 0.47% active. inhibition, % at 10 µM;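 active = every replicate reaching a set inhibition limit, whatever the replicate mean, cut at about 25% in these data; inconclusive = mean inhibition reaches that limit but some replicates miss it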;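 note: 0% = plate neutral control median and 100% = total signal loss; the record names both 10 and 1 µM as test concentration; the first replicate is given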
UCH37 DUB inh = blocks the human deubiquitinase UCH37; AID 588478; purified proteasome/UCH37, Ub-AMC cleavage fluorescence; Q9Y5K5; inhibition, % (concentration not given with the values); 330,000 tested, 0.33% active;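 active = mean of two replicates above 20%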;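 note: 0% = compound-free wells with enzyme and 100% = wells lacking proteasome; stock transfer was 100 nL into about 20 µL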
Target sequence (Q9Y5K5 whole entry, looked up): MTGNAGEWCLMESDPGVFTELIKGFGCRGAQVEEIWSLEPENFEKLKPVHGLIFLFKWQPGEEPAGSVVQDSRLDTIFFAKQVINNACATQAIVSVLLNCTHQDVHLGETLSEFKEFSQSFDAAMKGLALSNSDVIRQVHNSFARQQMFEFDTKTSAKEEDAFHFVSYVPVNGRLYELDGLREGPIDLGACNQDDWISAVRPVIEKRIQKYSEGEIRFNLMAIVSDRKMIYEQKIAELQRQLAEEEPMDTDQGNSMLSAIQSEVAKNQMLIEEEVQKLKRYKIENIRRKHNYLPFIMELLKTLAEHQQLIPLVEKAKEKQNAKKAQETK
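Test system – human UCH37 enzyme supplied as purified proteasome complex · Incubation – 30 min preincubation with enzyme, 25 min cleavage at room temperature · Detection – AMC fluorescence from Ub-AMC cleavage, excitation 355 nm, emission 460 nm · Benchmarks – no-proteasome wells (full inhibition) and compound-free wells (no inhibition)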
E coli growth = inhibitors of Escherichia coli growth | OD600, 23 h; stronger effect = lower value | OD600 absorbance (test concentration not listed) | 330,000 tested, 0.21% active;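 active = OD600 absorbance below the run mean of sample wells minus 3.6 SD, in any replicate, cut at about 0.56 in these data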;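 note: stock transfer was 300 nL into about 60 µL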
FGF22 binding = binders of recombinant human FGF22 by thermal shift; SYPRO orange fluorescence; percent of sucrose octasulfate shift, DMSO zero; calls only at 9.99 µM; 340,000 tested, 1.5% active;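 active = melting point raised past a set limit in the mean and every replicate; inconclusive = no clear call; three in four hits are not shown here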
Target sequence (Q9HCT0 whole entry, looked up): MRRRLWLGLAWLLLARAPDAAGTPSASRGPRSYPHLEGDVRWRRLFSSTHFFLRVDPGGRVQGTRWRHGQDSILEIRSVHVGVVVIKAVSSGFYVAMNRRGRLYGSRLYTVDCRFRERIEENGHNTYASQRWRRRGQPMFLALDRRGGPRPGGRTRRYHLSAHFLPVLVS
Vif A3G = HIV-1 Vif–A3G interaction blockers – biochemical, TR-FRET, GST-Vif 1-94, biotin-A3G peptide, dose response retest, primary screen (AID 1117319) | TR-FRET GST-Vif / biotin-A3G peptide binding; higher % means a stronger effect; test concentration not given here; strong numbers were not always called active | inhibition, %, or IC50 in µM where a hit was titrated | 260,000 tested, 0.57% active;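 active = above the screen mean plus three standard deviations and confirmed in dose response; inconclusive = results disagree or hit not tested in dose response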;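 note: Vif residues 1-94 fused to GST binding biotinylated APOBEC3G peptide 110-148; 0% = full assay without inhibitor and 100% = GST in place of GST-Vif; retest series ran down from 100 µM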
RanGTP-Impb inh = inhibitors of RanGTP-importin-beta interaction, primary screen, biochemical, FRET, CFP-Ran, YFP-importin-beta, homogeneous | cell-free CFP-Ran/YFP-importin-beta FRET ratio | inhibition, % (test concentration not listed) | 300,000 tested, 1.1% active | AID 2216;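 active = most replicates above 15%; inconclusive = exactly half above 15%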;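 note: 0% = DMSO wells and 100% = Ran loaded with GDP instead of GTP; wells of about 40 µL received 100 nL stock; the first replicate is given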
HNF4A DNA FP = change in binding of human HNF4 alpha to DNA | HNF4a-FITC DNA binding, fluorescence polarization, 1 h | 360,000 tested, 0.3% active | AID 1224865 | activity change, % at 10 µM | P41235; in the data active = activity change above about 30%, passing the limit was not always enough;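 note: controls were the assay level and a saturating level of protein; the project sought stronger binding though the title names inhibitors; some compounds called inactive have numbers as strong as hits; positive values seem to mean higher polarization but the record does not say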
Target sequence (P41235 whole entry, looked up): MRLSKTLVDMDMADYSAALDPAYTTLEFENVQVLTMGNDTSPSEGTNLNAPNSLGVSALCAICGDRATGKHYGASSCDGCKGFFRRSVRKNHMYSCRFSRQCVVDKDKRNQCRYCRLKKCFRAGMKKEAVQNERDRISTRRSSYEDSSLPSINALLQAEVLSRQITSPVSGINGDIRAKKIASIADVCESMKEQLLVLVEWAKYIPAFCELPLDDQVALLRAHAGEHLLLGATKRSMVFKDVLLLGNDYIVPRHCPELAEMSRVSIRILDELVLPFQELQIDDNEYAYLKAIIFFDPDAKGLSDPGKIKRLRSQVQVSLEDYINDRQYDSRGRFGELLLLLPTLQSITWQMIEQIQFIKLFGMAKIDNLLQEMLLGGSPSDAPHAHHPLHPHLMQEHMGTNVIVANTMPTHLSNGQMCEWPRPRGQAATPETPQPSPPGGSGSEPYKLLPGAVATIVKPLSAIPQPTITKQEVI
Active calls of the source: *; i = inactive; ? = inconclusive; / = no result given; & = joins results of further samples. The list is partial. The share of hits here may be higher or lower than overall.

SMILES | MLL AF4-AF9 inh | UCH37 DUB inh | E coli growth | FGF22 binding | Vif A3G | RanGTP-Impb inh | HNF4A DNA FP
COc1ccc(S(=O)(=O)N2CCCC(C(=O)NC3CC3)C2)cc1Cl (centres undefined) | 1.3 | 2.4 | 0.625 | / | -1.2% | 1.6 | -1.7
Cc1cc(N2CCN(c3cccc(C(F)(F)F)c3)CC2)n2ncnc2n1 | / | 4.0 | 0.75 | / | -4.3% | 1.8 | 1.6
O=C(c1ccc(Cl)c(Cl)c1)N1CCN(c2ccccn2)CC1 | -8.2 | 3.1 | 0.62 | i | 3.7% | 8.9 | -0.4
COc1ccc2[nH]c(=O)c(CN(Cc3cccnc3)S(=O)(=O)c3ccccc3F)cc2c1 | 2.2 | -124.0 | 0.59 | i | / | ? | -1.2
Cc1ccc(NC(=O)CS(=O)CC(=O)Nc2ccccc2-c2ccc(C)o2)cc1 (centres undefined) | 0.2 | / | / | i | 3.5% | 2.6 | -1.4
Cc1ccc(S(=O)(=O)/N=S(\C)CC2CC2(Cl)Cl)cc1 (centres undefined) | / | 4.5 | 0.711 | / | 3.1% | -4.9 | 0.7
CCOc1cc(CNCC(C)C)c(Cl)cc1OCC(=O)Nc1ccccc1 | ? | -2.2 | 0.712 | i | 3.2% | ? | 0.2
CCc1nnc(NC(=O)CSc2nnc3c4ccccc4n(C)c3n2)s1 | / | 4.5 | 0.625 | / | -12.7% | 2.1 | -0.5
FC(F)(F)c1ccc(CN2CCCCCC2)cc1 | 1.5 | 0.0 | 0.647 | i | -1.2% | -0.6 | -0.1
O=C(NCCCn1ccnc1)c1ccc(Cl)c(Cl)c1 | -6.7 | 2.4 | 0.603 | i | -1.1% | -5.4 | -4.2
O=C(Cc1cccs1)NCCc1ccc(Cl)cc1 | 0.5 | 3.5 | 0.696 | i | -5.2% | -1.9 | 2.4
Cc1ccc(NC(=O)N2CCCC2C(=O)Nc2nnc(C(C)C)s2)cc1 (centres undefined) | 2.1 | 0.5 | 0.638 | i | / | ? | -1.4
CC(=O)NC1(C(=O)O)CCCC1 | 6.2 | 2.3 | 0.713 | i | -2.0% | 4.6 | 5.5
COc1ccccc1CNc1nc(NCc2ccc(C(C)C)cc2)c2sccc2n1 | 3.8 | / | / | i | / | / | -4.5
CCOC(=O)N/N=C(/C)c1cccc(-n2cnnn2)c1 | 2.5 | / | / | i | 1.9% | ? | 2.7
CC(C)NS(=O)(=O)c1ccc(OCC(=O)NCc2ccccc2)cc1 | / | 0.8 | 0.707 | / | -2.8% | 0.8 | 1.0
CC(=O)Nc1ccc(C=NN=C2c3ccccc3-c3ccccc32)cc1 | 0.1 | / | / | i | 0.3% | / | 5.4
Cc1nn(Cc2ccccc2)c2c1C(c1cccc(Cl)c1)C(C#N)=C(N)O2 (centres undefined) | / | 0.1 | 0.686 | / | 0.7% | -1.6 | -3.3
CC(=O)Nc1ccc(C(=O)N(C)C(C(=O)Nc2ccccc2)c2ccccn2)cc1 (centres undefined) | 0.8 | 2.5 | 0.594 | i | / | ? | 4.5
O=C(c1ccccc1)N1CCN(Cc2cccc(Oc3ccccc3)c2)CC1 | 0.2 | 5.0 | 0.68 | i | -11.4% | -0.5 | 1.5
Cc1ccccc1N1CCN(C(=O)c2ccccc2NC(=O)c2ccccc2C(=O)O)CC1 | 0.7 | -0.4 | 0.645 | i | ? | 0.3 | 0.9
Cc1ccccc1N1CCN(CCC(=O)Nc2ccc(F)cc2)CC1 | 2.9 | -1.3 | 0.671 | i | / | -5.9 | -0.8
CCc1nnc(NC(=O)c2cc(-c3cccnc3)nc3ccccc23)s1 | -1.0 | 4.1 | 0.642 | i | 10.7% | -1.7 | -2.5
O=C(NCc1cccnc1)c1cccn1-c1ncc(C(F)(F)F)cc1Cl | 0.4 | -1.6 | 0.681 | i | 26.9% | -1.8 | 4.3
CC(=O)c1ccc(NC(=S)N2CCCC(CO)C2)cc1 (centres undefined) | -32.4 | 1.5 | 0.641 | i | 16.4% | -2.8 | 3.9
CCOC(=O)c1c(C)[nH]c(C)c1C(=O)COC(=O)Cc1n[nH]c(=O)c2ccccc12 | -1.1 | 2.3 | 0.696 | i | / | / | 2.5
Cc1nn(CC(=O)Nc2ccccn2)c(=O)c2ccccc12 | / | 1.5 | 0.684 | / | 17.0% | -0.6 | -1.9
CCOC(=O)C1=C(C(F)(F)F)Nc2ncnn2C1c1ccc(OC)cc1OC (centres undefined) | / | 1.2 | 0.617 | / | 8.8% | -1.8 | -1.2
COc1cccc(NC(=O)[C@H](NC(=O)[C@@H]2Cc3ccccc3CN2)c2ccccc2)c1 | 4.4 | 5.2 | 0.708 | i | -0.8% | -0.4 | 0.7
COc1ccc(Nc2cc(C)nc(-n3nc(C)cc3C)n2)cc1 | / | -2.0 | 0.671 | / | 0.0% | 7.1 | -7.2
CC(C)C[C@@H](CNCC(=O)[C@H](CC(=O)O)NC(=O)c1[nH]cnc1C(=O)N[C@H](CN)CC(C)C)NC(=O)c1nc[nH]c1C(=O)N[C@@H](C)C(=O)O | 2.7 | / | / | i | -5.8% | / | 1.8
Cc1ccc(N2C(=O)C3CC(c4ccccc4)=C4C5C=CC(C6C(=O)N(c7ccc(C)cc7)C(=O)C56)C4C3C2=O)cc1 (centres undefined) | / | 3.5 | 0.688 | / | / | 2.5 | -3.0
O=C(NC(=S)NCCO)c1sc2ccccc2c1Cl | 5.4 | 2.6 | 0.702 | i | / | -2.4 | -2.4
COc1cc(C#Cc2ccc3cc(CCCO)oc(=O)c3c2)cc(OC)c1 | 3.5 | 2.2 | 0.668 | i | / | / | -1.4
S=C(NCC1CCCO1)N1CCc2ccccc2C1 (centres undefined) | -3.7 | 4.8 | 0.717 | i | -1.5% | 1.2 | 0.7
O=C(NC1CCCCC1)C1CCCN1C(=O)NCc1ccccc1 (centres undefined) | / | -0.8 | 0.651 | / | -2.3% | 5.7 | -3.3
CC(C)(C)c1ccc(C(=O)c2c[nH]c(C(=O)NCCCN3CCOCC3)c2)cc1 | / | -1.2 | 0.725 | / | -6.0% | 7.3 | -1.0
Brc1cccc(CN2CCCCCCC2)c1 | / | 1.7 | 0.678 | / | -0.1% | 4.2 | -2.0
Cc1c(NS(=O)(=O)c2cc(C(=O)O)ccc2Cl)c(=O)n(-c2ccccc2)n1C | -1.4 | 0.4 | 0.698 | i | / | 4.9 | -2.0
Cn1nc(C(C)(C)C)cc1C(=O)Sc1cccc(Br)c1 | -1.3 | / | / | i | -14.6% | -1.3 | 0.9
O=[N+]([O-])c1ccc(OCCO)c(P(=O)(c2ccccc2)c2ccccc2)c1 | -0.1 | 3.0 | 0.656 | i | / | ? | 2.4
Cc1ccc(NS(=O)(=O)c2ccc(-c3ccc(=O)[nH]n3)o2)cc1Cl | -7.3 | 1.9 | 0.62 | i | 1.5% | -2.5 | 2.6
COc1cc(/C=N/Nc2ncnc3sc4c(c23)CCC4)ccc1O | -0.1 | / | / | i | 22.2% | -2.0 | 0.1
CN1CCN(Cc2cc(COCc3ccccc3)c3cccnc3c2O)CC1 | / | / | / | / | ? | -3.9 | 1.9
COc1cccc(C(=O)N2CCC[C@H]2C(=O)N2CCC[C@H]2C(=O)N(C)Cc2ccccc2)c1 | -0.5 | / | / | i | / | / | 3.9
CN(C)CCN1CCN(C2CN(Cc3ccc(F)cc3)S(=O)(=O)C2)CC1 (centres undefined) | -2.1 | / | / | i | / | / | -0.2
CCCCn1c(SCC(=O)NNC(=O)c2ccco2)nnc1-c1ccco1 | -1.5 | 1.6 | 0.7 | / | / | 6.9 | -1.2
C=CCN1c2ccccc2[C@]23C[C@@H](C(=O)OC)N(C(=O)c4ccc(Br)cc4)C2=NC(C(=O)OC)=C(C(=O)OC)[C@H]13 | 4.1 | 2.9 | / | i | / | 1.2 | 1.9
Cc1c(C#N)c2ncnc(N)c2n1-c1ccccc1 | / | 2.0 | 0.759 | / | -8.1% | / | -4.1
N#Cc1nc(COc2ccc(Cl)cc2Cl)oc1N1CCN(c2ccccc2)CC1 | / | 1.3 | 0.749 | / | -2.5% | -14.0 | 0.5
Cc1ccc(-n2nc3c(N4CCC(C(=O)N5CCC(C(N)=O)CC5)CC4)nnc(C)c3c2C)cc1 | 2.3 | -24.7 | 0.705 | i | / | -35.5 | 49.4*
CCN(CC)c1nc(Nc2ccc(Cl)cc2)nc(OCC#N)n1 | / | 0.0 | 0.778 | / | -7.1%&-2.3% | -0.3 | -3.3
Cc1noc(C)c1COC(=O)CCCc1c[nH]c2ccccc12 | / | 1.4 | 0.722 | / | 11.9% | 1.8 | 11.1
O=C(CSc1nnc(Cc2cccs2)n1-c1ccccc1)NC1CCCCC1 | / | 2.7 | 0.734 | / | 2.2% | -2.3 | -1.6
N#C/C(=C\c1ccc(-c2cccc([N+](=O)[O-])c2)o1)C(=O)Nc1nc(-c2cccs2)cs1 | -3.6 | / | / | i | 3.5% | -1.6 | -3.0
Cc1nc2ccccc2c(=O)n1/N=C/c1cccnc1 | / | / | / | / | 0.8% | -2.1 | -0.4
COc1ccc(NC(=O)c2cc(Br)ccc2Cl)c(OC)c1 | -5.6 | -1.0 | 0.669 | i | 10.7% | -1.0 | -0.6
COc1ccc(CNC(=O)CSc2nnc(C)s2)cc1 | / | 2.1 | 0.732 | / | -2.5% | -1.5 | -3.8
O=C(Nc1cccnc1)C1CCCN(S(=O)(=O)c2ccccc2)C1 (centres undefined) | / | 2.3 | 0.672 | / | -3.5% | -0.3 | -4.0
O=Cc1ccc(OCCCOc2cccc3cccnc23)cc1 | 4.2 | 4.3 | 0.671 | i | / | -1.2 | 0.3

Following part:
SMILES | MLL AF4-AF9 inh | UCH37 DUB inh | E coli growth | FGF22 binding | Vif A3G | RanGTP-Impb inh | HNF4A DNA FP
CCOC(=O)c1cc(-c2ccccc2)nc2nc(N3CCCCC3)sc12 | / | / | / | / | -22.2% | 11.7 | 0.2
CCCCn1nc(NC(=O)CC)c2cc3cc(OC)ccc3nc21 | -5.5 | -48.4 | 0.664 | i | -3.9% | 65.5* | 3.5
Nc1c(Br)c(=O)[nH]c(=O)n1-c1ccc(F)cc1 | -0.2 | 2.7 | 0.634 | i | -7.2% | 3.7 | 4.5
COc1ccc2c(CN3CCCC3)cc(=O)oc2c1 | -1.0 | / | / | i | / | / | 3.4
O=C(O)CSc1ncnc2sc3c(c12)CCC3 | / | -10.7 | 0.669 | / | 28.0% | 0.7 | 1.6
CN1CC(c2ccccc2)C(c2ccc(Cl)cc2)=N1 (centres undefined) | -12.0 | -23.3 | 0.6 | i | -5.0% | 0.6 | 0.6
O=C(N=C1N=C2C=CC=CN2Cc2ccccc21)c1ccc(S(=O)(=O)N2CCCC2)cc1 | -10.4 | 2.9 | 0.694 | i | ? | -3.2 | -0.1
CN(CCNC(=O)C1(O)c2ccccc2NC(=O)N1c1ccccc1)Cc1ccccc1 (centres undefined) | / | 3.8 | 0.705 | / | 27.1% | / | -2.5
CS(=O)(=O)N(CC(=O)N1CCc2ccccc2C1)c1ccc(Cl)cc1F | -0.9 | -0.4 | 0.659 | i | 1.1% | -0.1 | -1.0
CCC(CC)c1nnc(NC(=O)CCCN2C(=O)c3ccccc3C2=O)s1 | / | 0.1 | 0.695 | / | 1.6% | 0.0 | 0.9

2 records drawn at random from those above, as already listed:
SMILES | MLL AF4-AF9 inh | UCH37 DUB inh | E coli growth | FGF22 binding | Vif A3G | RanGTP-Impb inh | HNF4A DNA FP
CCOC(=O)c1cc(-c2ccccc2)nc2nc(N3CCCCC3)sc12 | / | / | / | / | -22.2% | 11.7 | 0.2
O=[N+]([O-])c1ccc(OCCO)c(P(=O)(c2ccccc2)c2ccccc2)c1 | -0.1 | 3.0 | 0.656 | i | / | ? | 2.4
